Screens: PubChem BioAssay, National Center for Advancing Translational Sciences (NCATS)
VACV mCherry inh – vaccinia inhibition (mCherry reporter); AID 720579; Potency, µM (top dose mostly 36.5 µM), for the others: top-dose activity change, negative = inhibition, usual class: inhibitors; actives 0.63% (n = 310,000); Vaccinia virus mCherry reporter infection, fluorescence; about a quarter of the inactives have no number; active = well fitted inhibition curve with a large enough effect; inconclusive = small, poorly fitted or top-dose-only effect; inactive = no such curve, though single readings can be large or run the other way; tested in A549 cells; note: nearly all actives have a fitted effect of over 35% in size; inactives centre near -10
Vaccinia Venus – inhibitors of vaccinia virus (Venus reporter); Potency, µM (top dose mostly 36.5 µM), inactives show top-dose activity change, negative = inhibition, usual class: inhibitors; actives 0.46% (n = 330,000); Vaccinia virus Venus reporter expression, fluorescence; active means well fitted inhibition curve with a large enough effect; inconclusive means small, poorly fitted or top-dose-only effect; inactive means no such curve, though single readings can be large or run the other way; tested in A549 cells; note: nearly all actives have a fitted effect of over 30% in size; inactives centre near -10
* hit, by the source's call; i = inactive; ? = inconclusive; · = not tested or not shown; & = joins results of further samples; [ ] = remark or other dose. % is set by controls: 0 for no effect and ±100 for the full control effect; potency is the fitted concentration of half-maximal effect. This is a random part of the collection; overall some 0.86% were active at least once.

structure	VACV mCherry inh	Vaccinia Venus
COC(=O)c1ccc(COC(=O)CCc2nc(-c3ccccc3)c(-c3ccccc3)o2)cc1	-13.9%	-6.5%
CCOC(=O)COn1c(=O)c(C)[n+]([O-])c2ccccc21	-17.5%	2.5%
CCCCN1C(=O)/C(=C/C=C2/C=Cc3ccccc3N2CC)SC1=S	4.9%	7.0%
COc1ccc(NC(=O)C2CCCN(S(=O)(=O)c3cccc4nonc34)C2)cc1 (stereo not drawn)	-21.6%	-21.1%
Fc1ccc2c(c1)-c1nc(-c3ccccc3)cc(-c3ccccc3)c1CO2	-5.6%	5.9%
COc1ccc(NC(=O)CC2(CC(=O)O)CCCC2)cn1	-4.5%	-5.1%
O=C(C(c1ccccc1)C(O)(c1ccccc1)c1ccccc1)N1CCOCC1 (stereo not drawn)	i	-12.5%
C=CCOc1ccc(C2/C(=C(/O)c3ccc(OC)cc3)C(=O)C(=O)N2CCN2CCNCC2)cc1 (stereo not drawn)	i	-9.6%
CC(Sc1n[nH]c(N)n1)C(=O)Nc1cccc(S(=O)(=O)N2CCOCC2)c1 (stereo not drawn)	-3.3%	-15.5%
CC(C)Oc1ccc(CNC(=O)C2CCCCN2S(=O)(=O)c2ccc(F)cc2)cc1 (stereo not drawn)	-15.9%	-5.0%
COc1ccccc1CNC(=O)CN1C(=O)CCc2cc(S(=O)(=O)N3CCCCC3)ccc21	4.5%	9.0%
O=c1nc(N2CCOCC2)ccn1Cc1ccc(Br)cc1	?	-9.2%
COc1cc(/C=N/NC(=O)C(C)Nc2n[nH]c(=O)[nH]c2=O)cc(OC)c1O (stereo not drawn)	-15.0%	1.3%
Cc1cccc(OCC(=O)Nc2ccc(Cl)c(-c3nc4ccccc4[nH]3)c2)c1	0.6%	-17.4%
CCOC(=O)c1c(C)[nH]c(C2=NNC(=Nc3ccccc3OC)SC2)c1C	-16.3%	?
COc1ccc(NC(=O)NCc2ccc3c(c2)OCO3)cc1OC	-0.7%	-24.0%
CCOc1ccc(Cc2onc3c2C(=O)CC(C)(C)C3)cc1OCC	-16.2%	-4.6%
CCCc1ccc(S(=O)(=O)N/N=C\c2ccc3c(c2)OCO3)cc1	-0.9%	-8.6%
Cc1nc(N2CCC(C)CC2)c2c(C)c(C(=O)Nc3ccc(C)c(F)c3)sc2n1	-23.8%	-6.1%
CCOC(=O)[C@]12CCC=C1N(Cc1ccc(Cl)cc1Cl)C(=O)[C@H](CC(=O)N1CCOCC1)C2	5.0%	2.0%
Cn1c(NC(=O)Cc2ccc(F)cc2)cc(=O)n(C)c1=O	-10.8%	-4.7%
Cc1nn(S(=O)(=O)c2ccc(C(C)C)cc2)c(C)c1S(=O)(=O)N1CCCCCC1	3.7%	6.0%
CC(C)c1ccc(S(=O)(=O)c2nnn3c2nc(NCCc2ccccc2)c2sccc23)cc1	-25.5%	-28.6%
CN(C)/C=C(\C=[N+](C)C)c1[nH]ncc1[N+](=O)[O-]	-3.9%	-1.1%
CC(C)CCN(Cc1ccco1)C(=O)c1cc2c(s1)-c1ccccc1OC2	?	?
O=C(O)CC1NCCc2ccccc21 (stereo not drawn)	-18.2%	-8.2%
COCCn1c(SCC(=O)N2CCCc3ccccc32)nnc1-c1ccco1	-13.9%	-12.8%
CCS(=O)(=O)Nc1cc(C(=O)O)ccc1C	-18.6%	-6.8%
CC(=O)NC(CC(=O)OCC(=O)c1ccc(NC(=O)CC(C)C)cc1)c1ccccc1 (stereo not drawn)	-14.3%	-3.0%
O=C(Nc1ccc(F)cc1F)c1ccccc1-c1ccccc1	-12.7%	-10.6%
O=[N+]([O-])c1cc(S(=O)(=O)c2ccc(O)c([N+](=O)[O-])c2)ccc1O	-1.8%	-5.7%
CCN(CC(=O)NCc1ccc(Cl)cc1)C(=O)c1cc(S(=O)(=O)NCc2ccccc2)ccc1C	-5.5%	-21.0%
COCCNC(=O)c1sc2nc3n(c(=O)c2c1C)CCC3	2.7%	-11.7%
O=C(Nc1ccccc1)Nc1cccc(NC(=O)Nc2ccccc2)c1F	18.6%	-17.9%
CCOC(=O)N1CCN(C(=O)c2cnn(-c3cccc(C)c3)c2-n2cccc2)CC1	-13.0%	-11.6%
COC(=O)c1sc(-c2ccc(C(C)(C)C)cc2)cc1NC(=O)COCC(=O)O	i	-3.5%
O=C(CCn1c(=O)sc2ccccc21)NCc1cccs1	-13.3%	-8.7%
O=C(C1CCN(S(=O)(=O)c2ccccc2)CC1)N1CCCCC1	-11.8%	-7.8%
COC(=O)C1=C(Nc2ccccc2NC(=O)CCCC(=O)O)CSC1	-3.4%	-23.2%
CCOC(=O)c1c(C)nc2sc3c(=O)[nH]cnc3c2c1-c1ccc(OC)cc1	i	-16.1%
COc1ccc(-c2cc(-n3c(C(F)(F)F)nc4ccccc43)n(CCC#N)n2)cc1	-27.4%	?
CCc1c(C)nc(SC)n(CC#N)c1=O	i	-5.2%
CC(C)(C)NC(=O)C(c1ccc(O)cc1)N(C(=O)CCC(=O)Nc1nccs1)c1ccccc1F (stereo not drawn)	-8.3%	-3.9%
O=C(/C=C/c1ccccc1[N+](=O)[O-])N1CCc2ccccc2C1	-22.7%	-18.8%
CCOC(=O)C1CCN(CCC(=O)Nc2ccc(Cl)cc2)CC1	·	-5.7%
CC(C)c1ccc(NC(=O)c2cc3sc(Cl)cc3n2C)cc1	-19.4%	-13.8%
COCCN1C(=O)N(c2cccc(C)c2)C(=O)C1CC(=O)Nc1ccc(F)cc1 (stereo not drawn)	·	?
COc1ccc(NC(=O)Cn2c(=O)n(CCc3ccccc3)c(=O)c3ccccc32)cc1	i	-15.0%
CN(c1ccccc1)S(=O)(=O)c1ccc(C(=O)N2CCCC(C(F)(F)F)C2)cc1 (stereo not drawn)	i	-17.7%
Cc1ccc(S(=O)(=O)c2nnn3c2nc(NC2CCCCC2)c2sccc23)cc1C	?	?
CC(C)=C1SC(N2CCOCC2)=NC1=O	·	-8.2%
O=C(C[N+]12CCCc3cccc(c31)CCC2)c1ccc2ccc3cccc4ccc1c2c34	-16.5%	-6.5%
CCCCn1c(CN2CCN(c3ccccc3)CC2)nc2c1c(=O)n(C)c(=O)n2C	?	?
CCn1c(SCC(=O)Nc2ccc3c(c2)c2ccccc2n3CC)nnc1-c1cnccn1	?	?
Cc1ccc(N(C(=O)C2CCCO2)C2C=CS(=O)(=O)C2)cc1Cl (stereo not drawn)	-18.0%	-9.5%
CCCN1CC23C=CC(O2)C(C(=O)O)C3C1=O (stereo not drawn)	-7.6%	-0.6%
Cc1ccc(S(=O)(=O)Nc2ccnc(-c3cccnc3)n2)cc1	-6.6%	-7.8%
CCOC(=O)c1cc(-c2ccc(OC)cc2)n(CCC(=O)NC2CCC(C)CC2)c1C (stereo not drawn)	-1.7%	-2.9%
CC(NC(=O)c1cccc(S(=O)(=O)N2CCN(Cc3ccccc3)CC2)c1)c1ccc(Cl)cc1 (stereo not drawn)	?	-4.3%
COC(=O)c1cc(NC(=O)Cn2nc(-c3ccccc3)c3c(c2=O)CCCC3)cc(C(=O)OC)c1	?	?

The results go on:
structure	VACV mCherry inh	Vaccinia Venus
CCOc1ccc(C(=O)NCc2ccco2)cc1OCC	-11.7%	-21.0%
Cc1ccc2c(C)c(C(=O)N(C)C(C)c3ccon3)oc2c1C (stereo not drawn)	i	-3.1%
CCOC(=O)c1cncn1C(C)c1ccccc1 (stereo not drawn)	-19.5%	-9.6%
CCOc1ccccc1/C=N/Nc1ccnc(=O)[nH]1	-6.8%	-20.8%
CC(C(=O)O)n1cc(C#N)c(=O)[nH]c1=O (stereo not drawn)	i	-13.3%
COc1ccccc1NCC(=O)N/N=C(\C)c1ccc(Br)s1	-12.4%	-20.8%
COC(=O)CN1C(=O)N/C(=C/c2ccc(C)o2)C1=O	-1.0%	16.2%
Cc1cc(Cl)ccc1NC(=O)/N=C1/NC(=O)CS1	17.6%	-3.1%
O=C(CCNS(=O)(=O)c1ccccc1)NCCCc1ccccc1	-11.4%	-17.3%
O=C(CSc1nc2c(oc3ccccc32)c(=O)n1Cc1ccco1)Nc1ccccc1Cl	-28.8%	?
COc1ccc(NC(=O)CC2C(=O)NCCN2C(=O)Nc2ccc(C(F)(F)F)cc2)cc1 (stereo not drawn)	-3.8%	-17.5%
CCOc1cccc(/C=N/N2C(=O)CSC2=S)c1O	-6.1%	10.0%
CC(C)CC1OC(C)Cc2[nH][nH]c(=O)c21 (stereo not drawn)	-13.5%	-2.4%
Cc1cc(C)cc(NC(=O)C[n+]2ccccc2)c1	i	-7.7%
COC(=O)[C@]1(Sc2ccc(C)cc2)CC(=O)N[C@@H]1c1ccccc1	3.4%	0.5%
Cc1nn(C)cc1/C=N/NC(=O)Cn1cncn1	-0.8%[7.34 µM]	-1.8%[7.34 µM]
CC(=O)NC1=CC(=O)c2nonc2C1=O	1.58µM*	1.78µM*
CCn1c(SCC(=O)c2ccc(Cl)cc2)nnc1C(C)C	-2.8%	-17.0%
Cc1ccccc1CN(c1ccc(C(=O)NCc2ccccn2)cc1)S(C)(=O)=O	-2.3%	-3.1%
Cc1ccc(C(=O)OCCOc2cccc(Cl)c2)cc1S(=O)(=O)N1CCOCC1	-27.1%	-18.2%
Cc1ccc(S(=O)(=O)Nc2ccc3c(c2)C(=O)N([C@@H](C)CO)C[C@@H](C)[C@@H](CN(C)S(=O)(=O)c2ccccc2)OCCCC[C@H](C)O3)cc1	-26.8%	?
O=C(Nc1ccc(F)cc1)c1nn(-c2ccccc2)c(=O)cc1Cl	?	28.2µM*
Cc1ccc(N(CC(=O)NC(C)C)C(=O)CCC(=O)Nc2nccs2)cc1C	i	-7.5%
COc1cccc(C(=O)c2sc(NC(C)C)nc2N)c1	·	7.08µM*
COc1cccc(-c2sc3ccc(OC)cc3c2-c2ccc(OCCN3CCCCC3)cc2)c1	i	-14.3%
Cc1nc2c(ccc3c2ccc2nc(C)sc23)s1	·	-6.1%
CCn1c(=O)c2c(n3cnnc13)-c1ccccc1CC21CCCCC1	·	-3.6%
O=C(OCCN=C1NS(=O)(=O)c2ccccc21)c1cccs1	-15.6%	-13.0%
Cc1nc2ccc3nc(NC(=O)C4COc5ccccc5O4)sc3c2s1 (stereo not drawn)	?	-25.9%&-9.8%
COc1ccc(C2=C(C)C(N3CCN(c4ccc(OC)cc4)CC3)=NS2(=O)=O)cc1	-7.6%	-4.9%
CCOc1ccccc1NC(=O)c1nnn(CC(=O)Nc2cc(C)cc(C)c2)c1N	-20.6%	-5.0%
O=C(NCCCN1CCOCC1)c1cc2c(s1)CCC2	-3.7%	7.0%
CCCCCn1cc2c(c1-c1ccc(Br)cc1)c(=O)n(C)c(=O)n2C	-5.7%	-2.8%
Cc1ccc(NC(=O)C2CCCN(S(=O)(=O)c3cccnc3)C2)c(C)c1 (stereo not drawn)	i	-10.3%
CCOC(=O)C1(C)CCCN1C(=O)c1cc(F)ccc1C (stereo not drawn)	16.9%	-0.6%
CC1(C)C[C@@H](O)[C@]2(C)CC[C@]3(C)C(=CCC4[C@@]5(C)CC[C@H](O)[C@](C)(CO)C5CC[C@]43C)[C@@H]2C1 (stereo partly drawn)	-0.2%	4.3%

Molecules shown so far that contain a tert-butyl group (two):
structure	VACV mCherry inh	Vaccinia Venus
COC(=O)c1sc(-c2ccc(C(C)(C)C)cc2)cc1NC(=O)COCC(=O)O	i	-3.5%
CC(C)(C)NC(=O)C(c1ccc(O)cc1)N(C(=O)CCC(=O)Nc1nccs1)c1ccccc1F (stereo not drawn)	-8.3%	-3.9%

Other structures follow.
structure	VACV mCherry inh	Vaccinia Venus
CCOc1ccccc1NC(=O)c1cc(S(=O)(=O)NC2CCCC2)ccc1F	-11.5%	-14.3%
Cc1cc(C)c(NC(=O)CN2CCN(S(=O)(=O)c3ccc4c(c3)OCCO4)CC2)c(C)c1	-1.6%	-12.1%
Cc1cc(C)cc(-n2c(C)cc(/C=N/NC(=O)c3cccc([N+](=O)[O-])c3C)c2C)c1	·	?
Cc1cccc(C)c1NC(=O)c1c(C)oc2c1C1=NCCN1C=N2	-6.9%	3.0%
CCOCCCNCC(=O)NC1(C)C2CCC(C2)C1(C)C (stereo not drawn)	-14.8%	-3.9%
CC(C)CCn1c(SCC(=O)NC2CC2)nc2cc(Cl)ccc2c1=O	-9.5%	-6.8%
COc1cccc(/C=N/NC(=O)C(C)n2nc(C)c([N+](=O)[O-])c2C)c1O (stereo not drawn)	?	?
Cc1ccccc1NC(=O)c1c(NC(=O)C(C)Oc2cccc(Cl)c2)sc2c1CCCC2 (stereo not drawn)	-4.4%[7.34 µM]	-2.4%[7.34 µM]
Cc1ccc(NC(=O)CN2C(=O)NC3(CCCCC3C)C2=O)cc1S(=O)(=O)N1CCOCC1 (stereo not drawn)	-18.4%	-12.6%
O=C(CSCc1ccc(Br)cc1)Nc1ccc(S(=O)(=O)N2CCOCC2)cc1	i	-22.0%
Cc1ccc(/C=C/C(=O)Nc2ccc([N+](=O)[O-])cc2)o1	?	-25.5%
O=C1C2C3C=CC(C3)C2C(=O)N1c1cccnc1 (stereo not drawn)	i	-6.4%
CCOC(=O)N1CCN(C(=O)/C(=C/c2cccs2)NC(=O)c2cccs2)CC1	-15.2%	-11.0%
